Assay outcomes (PubChem)
D2 PAM – Beta-Arrestin HTS for Positive Allosteric Modulators of the Human D2 Dopamine Receptor: Potentiators | D(2) dopamine receptor (Homo sapiens), P14416 | DiscoveRx D2 beta-arrestin cells, luminescence, 90 min; 100% = 57 uM dopamine signal | potentiation, % (concentration not given with the values) | 360,000 tested, 0.23% active; active = potentiation of 50% or more; inconclusive = 30% to 50%; inactive = 30% or less;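 also: compound concentration not given in the record; tested on top of an EC20 dose of dopamine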
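D2 cells co-treated with compound plus 50 nM dopamine (EC20) for 90 min at 37 deg C to detect potentiation. Beta-arrestin recruitment was read as enzyme-fragment luminescence after 1 h at ambient temperature. Full response was set by 57 uM dopamine.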
gsp ag – qHTS for Agonist of gsp, the Etiologic Mutation Responsible for Fibrous Dysplasia/McCune-Albright Syndrome: qHTS | gsp mutant cells, cAMP HTRF, 30 min; control for the full effect not named in the record | Potency, µM (titrated, usually from 76.9 µM), inactives show top-dose activation (cAMP increase), most hits filed as activators | 340,000 tested, 0.13% active; active = well fitted activation curve with a large enough effect; inconclusive = small, poorly fitted or top-dose-only effect, or another doubt; inactive = no such curve, though single readings can be large or run the other way; cell line not stated here;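 also: phosphodiesterase inhibitor Ro 20-1724 added with compounds to block cAMP breakdown; potency is read from the fitted curve at half-maximal effect; nearly all actives have a fitted effect of over 60% in size; about a fifth of the inactives were tested at one dose only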
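Cells stably selected in G418 were plated at 2000/well, grown 16-24 hr, then given compounds in DMSO with the PDE inhibitor […] (300 uM solution added) for 30 min at 37C; cAMP was read by HTRF.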
gsp antagonist – qHTS for Antagonists of gsp, the Etiologic Mutation Responsible for Fibrous Dysplasia/McCune-Albright Syndrome: qHTS. Potency, µM (titrated, usually from 76.9 µM), for the others: at the top dose activity change, negative = inhibition, actives largely listed as inhibitors. AID 624288, 2012. gsp-mutant cells, cAMP HTRF, 30 min; control for the full effect not named in the record. 340,000 tested, 0.4% active; active = falling curve of any shape with a large fitted effect; inconclusive = falling curve, mostly with a smaller effect; inactive = flat or rising curve; cell line not stated here;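 also: intracellular cAMP measured with PDE inhibitor Ro 20-1724 present during compound exposure; potency is read from the fitted curve at half-maximal effect; % is scaled to controls: 0 for no effect and ±100 for the full control effect; nearly all actives have a fitted effect of over 65% in size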
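Cells, 2000/well, grown 16–24 h in DMEM 10% FBS with 0.5 mg/ml G418, then compounds plus […] (300 uM addition stock), 30 min at 37C. cAMP read by HTRF (cAMP-d2 and anti-cAMP antibody-K in lysis buffer) after 30 min RT.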
Menin-MLL FL inh – qHTS Assay for Inhibitors Targeting the Menin-MLL Interaction in MLL Related Leukemias: Competition With Fluorescein Labeled MLL-derived Peptide. FP activity change, % at 61.4 µM. Fluorescence polarization, fluorescein-MLL peptide displacement from menin. 290,000 tested, under 10 active; inconclusive = falling polarisation curve, or a change in total fluorescence; inactive = total fluorescence flat and polarisation flat or rising; no compound was filed as active; the % refers to the polarisation; negative = inhibition;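 also: % of control where 0% means no effect; inhibitors lower the polarisation; unlabelled MLL peptide was the positive control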
ClpP mod – qHTS Assay for Activators of ClpP; ATP-dependent Clp protease proteolytic subunit (Bacillus subtilis (strain 168)), P80244; purified B. subtilis ClpP, FRET peptide cleavage, 20 min; Potency, µM (top dose mostly 57.5 µM), inactives show top-dose activity change, negative = active; 340,000 tested, 1.9% active; AID 651965, 2013; active = well fitted falling curve with a large enough effect; inconclusive = small, poorly fitted or top-dose-only effect; inactive = no such curve, though single readings can be large or run the other way; also: potency is read from the fitted curve at half-maximal effect; the source files actives as falling curves though it sought activators and does not explain the sign; nearly all actives have a fitted effect of over 65% in size; many hits overshoot -100%
Target sequence (P80244 whole entry, looked up): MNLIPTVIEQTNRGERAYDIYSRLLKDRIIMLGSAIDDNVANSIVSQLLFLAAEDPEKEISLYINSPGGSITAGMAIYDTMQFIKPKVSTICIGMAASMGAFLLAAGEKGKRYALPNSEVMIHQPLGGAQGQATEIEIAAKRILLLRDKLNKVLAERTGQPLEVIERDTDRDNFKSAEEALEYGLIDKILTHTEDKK
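Buffer: 100 mM Tris/HCl pH8, 100 mM KCl, 0.05% low protease BSA, 2.5% glycerol, 0.01% Tween-20. ClpP 10 microg/mL final; 20 min RT; delta FRET normalized to ADEP and DMSO controls.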
TRPV1 potentiator – HTS Assay for Compounds that Act as Potentiators of the Vanilloid Receptor 1. 320,000 tested, 0.02% active. TRPV1-expressing cells, Fluo-8 calcium influx, capsaicin EC20 potentiation; host cell line not named in the record; control for the full effect not named in the record. Transient receptor potential cation channel subfamily V member 1 (Homo sapiens), Q8NER1. potentiation, % at 8.33 µM. AID 540277, 2011; active means potentiation above 80%; inconclusive means 30% to 80%; inactive means below 30%; also: 0% is about no effect
Target sequence (Q8NER1 whole entry, looked up): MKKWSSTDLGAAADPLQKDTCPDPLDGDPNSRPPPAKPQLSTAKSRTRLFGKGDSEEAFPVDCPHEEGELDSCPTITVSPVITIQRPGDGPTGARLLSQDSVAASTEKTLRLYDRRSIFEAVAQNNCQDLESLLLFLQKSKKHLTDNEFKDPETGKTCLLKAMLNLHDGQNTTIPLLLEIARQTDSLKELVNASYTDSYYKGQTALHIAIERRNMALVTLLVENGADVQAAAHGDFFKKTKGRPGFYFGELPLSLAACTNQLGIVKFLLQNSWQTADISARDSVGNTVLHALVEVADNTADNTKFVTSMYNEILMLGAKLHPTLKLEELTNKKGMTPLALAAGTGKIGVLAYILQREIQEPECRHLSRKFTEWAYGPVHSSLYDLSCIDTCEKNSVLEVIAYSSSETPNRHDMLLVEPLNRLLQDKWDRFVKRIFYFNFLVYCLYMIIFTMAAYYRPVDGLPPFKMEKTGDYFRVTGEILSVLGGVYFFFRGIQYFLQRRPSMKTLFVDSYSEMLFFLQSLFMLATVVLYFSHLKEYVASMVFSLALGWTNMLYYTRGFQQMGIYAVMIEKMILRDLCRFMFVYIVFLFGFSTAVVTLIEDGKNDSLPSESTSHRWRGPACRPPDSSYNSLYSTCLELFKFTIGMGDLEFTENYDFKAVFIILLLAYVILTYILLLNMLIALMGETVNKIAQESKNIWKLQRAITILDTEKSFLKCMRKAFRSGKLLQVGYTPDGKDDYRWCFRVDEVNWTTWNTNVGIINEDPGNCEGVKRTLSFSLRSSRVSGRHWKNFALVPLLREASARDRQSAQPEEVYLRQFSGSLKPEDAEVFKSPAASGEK
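Cells expressing TRPV1 were dye-loaded with Fluo-8 and read kinetically: 10 s baseline, 3 min after compound (agonist portion), then 2 min after EC20 capsaicin (allosteric enhancer portion). Calcium-bound dye fluorescence at 480/520 nm.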
Sfp PPTase inh – qHTS Assay for Inhibitors of Bacillus subtilis Sfp phosphopantetheinyl transferase (PPTase). 4'-phosphopantetheinyl transferase ffp (Bacillus subtilis), Q9F4F7. Biochemical Sfp PPTase activity, qHTS. Potency, µM, inactives show max response, negative = inhibition, most hits filed as inhibitors. 310,000 tested, 3.5% active; active = well fitted inhibition curve with a large enough effect; inconclusive = small, poorly fitted or top-dose-only effect, or another doubt; inactive = no such curve, though single readings can be large or run the other way;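 also: the enzyme is Sfp with the accession as filed and its product quenches rhodamine fluorescence; potency is read from the fitted curve at half-maximal effect; 0% = enzyme reaction without inhibitor and -100% = no enzyme wells; top concentration of the series not given in the record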
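Buffer: 50 mM Hepes-Na pH 7.6, 10 mM MgCl2, 0.01% Nonidet P-40, 0.01% BSA. Enzyme 15 nM, pre-exposed to compound 15 min; substrates then added and fluorescence change tracked over 30 min.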
The depositor's hits bear a star; ? = inconclusive; . = not tested or not shown; & = joins results of further samples; ! = not active in a repeat; [ ] = another dose, or the depositor's remark. An excerpt, so the mix of outcomes need not match the whole.

SMILES	D2 PAM	gsp ag	gsp antagonist	Menin-MLL FL inh	ClpP mod	TRPV1 potentiator	Sfp PPTase inh
NC1=C([N+](=O)[O-])C(c2ccc3c(c2)OCO3)c2c(c3ccccc3oc2=O)O1 (centres undefined)	-3	-2%	7%	0.6	-5.2%	26	-18%
C/C(=N\N1CCCCCC1)c1c(O)n(C)c(=O)n(C)c1=O	.	.	.	1.2	.	-4	24%
Cc1ccc(-c2cc(-c3ccc(C)cc3)[n+](C)o2)cc1	-12	12%	-9%	-1.0	14µM*	3	32%[activator]
C[C@]1(O)CCC2C3CC[C@@H]4CC(=O)CC[C@]4(C)C3CC[C@@]21C (some centres undefined)	-7	-5%	-5%	.	1.4%	.	.
CC(=O)NC1C(OC(=O)Cc2ccccc2)OC(COC(C)=O)C(OC(C)=O)C1OC(C)=O (centres undefined)	-28	5%[15.4 µM]	.	-2.3	.	1	19%
Cc1cc(/C=C2\C(=O)NC(=O)N(Cc3ccccc3Cl)C2=O)c(C)n1-c1ccc(C(=O)O)cc1	-7	6%[15.4 µM]	?	18	0.2%	-2	-15%
CCOP(=O)(OCC)c1nc(-c2ccc(Cl)cc2)oc1NCc1ccccc1	-20	7%	-15%	0.3	4.0%	-26	-11%
O=c1ccc2c(O)c3ccoc3cc2o1	-38	.	-17%	-0.1	-0.6%	.	3%
Fc1ccc(NC(=S)N2Cc3ccccc3-n3nncc3C2)cc1	-1	-13%	.	.	-0.4%	.	.
COC(=O)C1=C(c2ccccc2)C[C@@H]2CC[C@H]1N2C(=O)NCc1ccc(F)cc1	-14	6%	-1%	.	2.2%	.	.
Cc1nn(CC(C)C)c(Cl)c1C(=O)NC1CCC(C)CC1 (centres undefined)	3	8%[15.4 µM]	8%	.	.	-8	.
CCOP(=O)(OCC)C(NC(=O)C(C)C)C(Cl)(Cl)Cl (centres undefined)	-8	11%	7%	1.7	1.6%	28	11%
COc1cc(CN2CCN(c3cc(C)ccc3C)CC2)ccc1O	-10	-24%	-8%	1.0	-1.6%	-12	2%
CCCCn1c(O)c(C=NCCCN(C)C)c(=O)[nH]c1=O	-1	-35%[inhibitor]	4%	3.0	1.5%	3	10%
Cn1c(O)c(C=NC2CCCCC2)c(=O)[nH]c1=S	-10	-11%[15.4 µM]	6%	1.1	.	6	19%
C[C@@H]1CN([C@@H](C)CO)C(=O)CCCn2nncc2CO[C@@H]1CN(C)C(=O)Oc1ccccc1	3	-58%[inhibitor]	.	.	2.4%	.	.
c1csc(CN2CCNCC2)c1	-7	15%[15.4 µM]	10%	0.2	-0.1%	-3	17%
CCCC1(CC(C)CC)C(=O)NC(=O)NC1=O (centres undefined)	-5	0%	.	.	-0.1%	.	.
O=C1NC(=O)N(CCc2ccc(F)cc2)C(=O)/C1=C\C=C\c1ccccc1	15	-16%[15.4 µM]	7%	?	.	3	-7%
C[C@H](CO)N1C[C@H](C)[C@@H](CN(C)C(=O)c2ccc3c(c2)OCO3)Oc2cc(/C=C/c3ccccc3)ccc2S1(=O)=O	-4	14%	.	.	-19%	.	.
CCOP1(=S)Oc2cc3c(cc2C(C(=O)OC)(C(F)(F)F)O1)OCO3 (centres undefined)	-5	?	-3%	0.7	-1.0%	1	25µM*
C(CCc1nn[nH]n1)CCc1nn[nH]n1	-3	-26%	9%	-5.1	-1.8%	-3	-35%
O=C1CCN(C(=O)Cc2ccccc2[N+](=O)[O-])CC1	3	-10%	5%	0.6	.	4	7%
Cc1ccc(C2=NOC(C)(c3nnc(-c4ccccc4)o3)C2)cc1 (centres undefined)	-8	0%	-7%	.	0.0%	.	.
O=C1NC(=S)NC(=O)C12C(c1ccc(F)cc1)NC(=S)NC2c1ccc(F)cc1 (centres undefined)	2	-27%	8%	1.0	0.0%	0	40µM*
C=C1C(=O)O[C@@H]2C[C@@H](C)[C@H]3C=CC(=O)[C@]3(O)C[C@@H]12	-11	.	11%	1.4	1.5%	17	12%
CCC(C)N1C(=O)NC(=O)C2(Cc3c(ccc4ccccc34)N(C)C2)C1=O (centres undefined)	77*	9%	?	0.5	0.8%	-4	-5%
C=C(C)[C@H]1CN[C@H](C(=O)O)[C@H]1CC(=O)O	4	.	1%	2.9&2.8&-0.4&1.4	0.6%	.	40µM*!
Cc1oc(-c2ccccc2)nc1CN1C(=O)CN=C(c2ccccc2)c2ccccc21	-5	1%	?	1.1	-0.5%	-7	-10%
COc1ccc(/C=C2/C(=O)NC(=S)N(C3CC3)C2=O)cc1CN1C(=O)c2ccccc2C1=O	-16	19%[15.4 µM]	4%	5.5	?	2	25µM*
COCCNC(=O)Cn1cc(C(=O)c2ccccc2F)c2ccccc21	-8	6%[15.4 µM]	14%	-4.2	0.1%	4	5%
CN1C(=O)C(=Cc2ccccc2Oc2ccc(Cl)cc2)C(=O)N(C)C1=O	-10	29%	3%[15.4 µM]	-0.7	-0.4%	-3	?
COc1ccc(OC)c(N2Cc3ccccc3C2=N)c1	-12	?	8%	1.7	.	-3	4%
CC(=O)N1CCN(CCN=Cc2c(O)n(-c3ccc(F)cc3)c(=S)[nH]c2=O)CC1	-7	15%[15.4 µM]	-1%	6.8	-2.1%	3	-2%
COC(=O)C1=C(c2ccccc2)C[C@@H]2CC[C@H]1N2C(=O)NCCCOC(C)C	-7	-2%	8%	.	-1.7%	.	.
COc1ccc(-c2csc(NC(=O)COC(=O)Cc3ccccc3)n2)cc1OC	.	.	.	-1.2	.	11	-7%
CCOC(=O)c1ccc(N2C(=O)CC(N3CC=C(c4ccc(F)cc4)CC3)C2=O)cc1 (centres undefined)	-1	-5%	5%	7.2	-6.4%	8	32µM*
COc1ccc(C(=O)C(C)(C)NO)cc1	17	-14%	-2%	2.7	2.1%	-2	-6%
CN1CCN(c2ccc([N+](=O)[O-])c(Sc3ccccn3)c2)CC1	-14	0%[15.4 µM]	-4%	2.6	0.5%	.	13%
Cc1cc(=O)[nH]c(CCl)n1	1	-10%	3%	-3.2	.	-21	14%
CN(Cc1ccccc1)Cc1ccccc1OC(=O)N(C)C	-9	0%	0%	1.7	0.1%	-3	16%
COC(=O)C1=C(c2cccc(C#N)c2)C[C@@H]2CC[C@H]1N2C(=O)N1CCC(O)CC1	13	.	4%	.	0.9%	8	.
Cc1nc2nc(C)c(CCC(=O)N3CCC4(CC3)OCCO4)c(C)n2n1	-3	?	10%	0.2	-4.8%	-5	10%
Cc1cccn2c(=O)c3cc(C(=O)N4CCC5(CC4)OCCO5)n(C)c3nc12	-4	?	7%	1.3	9.7%	3	5%
COc1ccccc1NC(=O)c1cn(CCC#N)nc1-c1ccc(F)cc1	2	5%	-4%	1.6	.	-19	14%
CCC(=O)c1ccc(OC(=O)N(C)c2ccccc2)cc1	1	-13%[15.4 µM]	5%	-3.7	.	-9	15%
O=C1N(c2ccc(Cl)cc2)C(c2cccnc2)N2CCCN12 (centres undefined)	-3	-27%	-4%	-0.6	1.6%	-13	16%
O=C(C(=O)N1CCOCC1)c1cn(Cc2ccccc2F)c2ccccc12	-12	-4%	-1%	0.4	0.3%	-21	-7%
CCC1(CC)C(=N)N(C)C(=O)NC1=O	-4	23%[15.4 µM]	3%	0.2	16µM*	-3	-17%
O=C(NC(=S)N1C[C@H]2C[C@H](C1)c1cccc(=O)n1C2)c1ccc(Cl)cc1	-25	.	-7%	-1.3	-0.8%	3	-15%
COc1ccc(C2C(C(=O)N3CCC4(CC3)OCCO4)c3cc(OC)c(OC)cc3C(=O)N2C)cc1 (centres undefined)	-11	-2%	-15%	2.6	-0.6%	-6	16%
CN(C)Cc1c[nH]c2ccc([N+](=O)[O-])cc12	-14	?	9%	.	.	.	.
Cc1ccc2c(c1)C1CN(C)CCC1N2C(=O)CCCN1C(=O)c2cccc3cccc(c23)C1=O (centres undefined)	-16	20%[15.4 µM]	4%	-0.5	.	.	2%
COc1ccc(/C=C2/C(=O)NC(=O)N(C3CCCCC3)C2=O)cc1CSc1ccccn1	.	.	.	26	.	-11	56µM*
CCC(=NCc1ccco1)c1c(O)n(C)c(=O)n(C)c1=O	-19	-15%	-2%	-1.3	-0.7%	0	12%
CN(C(=O)Cc1ccc(Cl)c(Cl)c1)C(CN1CCCC1)c1cccc(OCC(=O)O)c1 (centres undefined)	-8	.	11%	6.9	-0.4%	12	-7%
Cc1[nH]c2ccccc2c1/C=N/O	-6	-3%	4%	2.8	-2.1%	-2	3%
Cc1noc(C)c1C(=O)N1CCC2(CC1)OCCO2	1	-8%	6%	-5.4	-0.6%	5	20%
COc1ccc(-n2c(/C=C/c3ccc(O)cc3)nc3ccccc3c2=O)cc1	14	-11%	?	?	-6.6%	3	-4%
O=C(N/N=C/c1c(O)n(C2CC2)c(=S)[nH]c1=O)c1ccccc1Cl	-11	-7%	7%	?	.	9	9%
Following part
SMILES	D2 PAM	gsp ag	gsp antagonist	Menin-MLL FL inh	ClpP mod	TRPV1 potentiator	Sfp PPTase inh
C[N+]12CCC(CC1)C(=C(c1ccccc1)c1ccccc1)C2	-14	0%	5%	6.6	-2.8%	11	-10%
CC(=O)c1c(C)n(CC2CCCO2)c2ccc(O)cc12 (centres undefined)	-9	?	1%	-8.8	-1.0%	-2	14%
Cc1ccc(S(=O)(=O)NCC2CCC(C(=O)N3CCC4(CC3)OCCO4)CC2)cc1 (centres undefined)	5	-27%	-7%	1.7	-2.0%	-24	4%
Cc1[nH]c2ccccc2c1C1=CCNCC1	-17	8%	-16%	8.4	-10%	-1	1%
COc1ccc(CNc2oc(-c3cccc4ccccc34)nc2P(=O)(OC)OC)cc1	13	-15%	-1%	-5.2	4.9%	-9	50µM*
CC(C)(O)C1C2OC(=O)C1C1(O)CC3OC34C(=O)OC2C14C (centres undefined)	3	.	7%	3.7	0.3%	.	12%
